Screens deposited in PubChem BioAssay by several laboratories.
CSC inhib: cancer stem cell inhibition; cancer stem cell-like cells viability, luminescence; inhibition, % at 7.5 µM; 300,000 tested, 1.1% active; AID 2717;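 active = mean at 75% or more and at least half the replicates too; tested in HMLE shEcad cells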;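 note: 0% = median of negative and 100% = median of positive control wells; the first replicate is given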
MT1-MMP act inh: inhibitors of human MT1-MMP activation | 360,000 tested, 0.061% active | AID 651647 | P50281 | GFP/RFP ratio change, % at 20 µM | HT1080 RFP-PRO-GFP cells, GFP/RFP ratio fluorescence, overnight; percent of plate control window, DMSO zero;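 active = GFP/RFP ratio change of at least 30% with cell ATP level not reduced by more than half and red fluorescence within 50% of control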; note: strong numbers were not always called active
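Material: RFP-PRO-GFP reporter HT1080 cells. Dosing: single-point 20 µM compound, 1% DMSO. Controls: DMSO and RFP-L50D-GFP cell wells. Timing: cells overnight before dosing, compound overnight, 37 °C, 5% CO2. Measure: GFP/RFP fluorescence ratio.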
HIV Env fusion: inhibitors of HIV Env-mediated cell fusion; HeLa-JRFL Env/CEM21 cell fusion, luciferase; inhibition, % at 12.3 µM; 360,000 tested, 1.1% active; AID 651610;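 active = mean replicate inhibition score of at least 50 and every replicate individually at or above 50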;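 note: 0% = plate neutral controls and 100% = maraviroc near 300 nM; one replicate is shown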
Rce1 inh: blocks yeast Ras-converting enzyme; Q03530; yeast membranes, quenched prenylated peptide cleavage fluorescence; calls only; 290,000 tested, 0.27% active;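 active = fall in fluorescence gain of 50% or more versus controls, with final raw signal at or below 3038400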;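 note: plate controls were neutral control wells for no effect and wells lacking membranes for full effect; tested at 10 µM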
UUG fidelity: modulators of start codon recognition fidelity in yeast. S. cerevisiae UUG-firefly luciferase reporter, luminescence/redox ratio. 350,000 tested, 0.13% active. AID 602363. activity score, % at 18.7 µM;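 active = replicate mean at a twofold rise or more, about +100% in these data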;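 note: firefly luciferase made from a UUG start codon reports start codon fidelity; reporter light over untreated wells divided by growth signal over untreated wells; some hits fall short of that in this replicate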
PABP FP inh: PABP-poly(A) binding inhibition | P11940 | PABP-poly(A) RNA binding, fluorescence polarization | inhibition, % at 35 µM | 290,000 tested, 1% active | AID 2014;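 active = 50% or more with normal probe brightness, or confirmed in later tests; about a fifth of its hits are not listed in these tables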;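 note: calls also rest on retests at 20 µM and on dose response follow-up; controls were probe without protein and protein plus probe with vehicle; some compounds called inactive have numbers as strong as hits; many hits fall short of the cut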
Target sequence (P11940 whole entry, looked up): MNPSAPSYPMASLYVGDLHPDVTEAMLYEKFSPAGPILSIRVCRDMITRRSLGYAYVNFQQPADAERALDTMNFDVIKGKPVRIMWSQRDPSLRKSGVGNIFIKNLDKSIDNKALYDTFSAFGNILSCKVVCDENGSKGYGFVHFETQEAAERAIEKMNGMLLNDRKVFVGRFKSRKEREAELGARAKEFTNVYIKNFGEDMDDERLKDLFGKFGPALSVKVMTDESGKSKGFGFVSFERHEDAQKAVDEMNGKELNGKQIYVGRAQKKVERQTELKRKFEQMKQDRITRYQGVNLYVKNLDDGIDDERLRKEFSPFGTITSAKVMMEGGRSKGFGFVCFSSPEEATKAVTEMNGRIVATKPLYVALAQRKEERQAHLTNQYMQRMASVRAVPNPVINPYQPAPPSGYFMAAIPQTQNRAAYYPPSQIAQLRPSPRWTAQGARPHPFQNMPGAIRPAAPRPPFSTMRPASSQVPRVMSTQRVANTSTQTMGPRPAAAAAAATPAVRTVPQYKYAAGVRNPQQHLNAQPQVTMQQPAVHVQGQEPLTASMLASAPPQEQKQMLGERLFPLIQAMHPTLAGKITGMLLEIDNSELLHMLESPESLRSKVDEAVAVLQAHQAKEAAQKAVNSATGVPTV
eIF4H FP inh: inhibitors of RNA binding by human eIF4H; Q15056; eIF4H fluorescence polarization binding assay; inhibition, % at 35 µM; 290,000 tested, 0.94% active;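 active = 50% or more with normal probe brightness, or confirmed in later tests; about a fifth of its hits are not listed in these tables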;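 note: calls also rest on retests at 20 µM and on dose response follow-up; 0% = protein and probe with vehicle and 100% = probe without protein; strong numbers were not always called active; many hits fall short of the cut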
eIF4H FP inh retest: second read-out of eIF4H FP inh, no call of its own (marks repeat the call); inhibition, %; compound at 20 µM; confirmation average;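 mean of two retest wells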
PABP FP inh retest: also measured in PABP FP inh; calls as there; inhibition, %; compound at 20 µM; confirmation repeats;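 mean of two retest wells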
MT1-MMP act inh RFP: further read-out of MT1-MMP act inh, marked with its call; RFP signal change, %; measured here: RFP expression control read;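 0 = vehicle wells; hits needed this value within 50% of zero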
Numbers without * were called inactive.

What do the screens show for `CC(C)Cc1nnc(NC(=O)c2ccc(-n3cncn3)c([N+](=O)[O-])c2)s1`?
MT1-MMP act inh: 0; HIV Env fusion: 1; UUG fidelity: -13; MT1-MMP act inh RFP: 0

Results for CC12CC(NC(=O)N1CCc1ccccc1)c1cc(Cl)ccc1O2 (stereo unspecified) ?
CSC inhib: -4; MT1-MMP act inh: -1; Rce1 inh: inactive; UUG fidelity: -14; PABP FP inh: -1; eIF4H FP inh: -4; MT1-MMP act inh RFP: -21

What do the screens show for `O=C(NCC1CCCO1)c1ccccc1NS(=O)(=O)c1ccc(F)cc1` (stereo unspecified)?
MT1-MMP act inh: 0; HIV Env fusion: -17; UUG fidelity: -3; MT1-MMP act inh RFP: 0

What do the screens show for `COc1ccc(S(=O)(=O)N2CCOC2CNC(=O)C(=O)NCc2ccc(F)cc2)cc1OC` (stereo unspecified)?
CSC inhib: -12; MT1-MMP act inh: 0; HIV Env fusion: 4; Rce1 inh: inactive; UUG fidelity: 2; PABP FP inh: 8; eIF4H FP inh: -5; MT1-MMP act inh RFP: -4

What do the screens show for `Cc1sc2ncn(CCn3cnc4sc(C)c(C)c4c3=O)c(=O)c2c1C`?
CSC inhib: -18; MT1-MMP act inh: 9; Rce1 inh: inactive; UUG fidelity: -14; PABP FP inh: -6; eIF4H FP inh: -2; MT1-MMP act inh RFP: -13

How did COc1ccccc1NC(=S)NCCc1ccc(Cl)cc1 do in these assays?
CSC inhib: 17; MT1-MMP act inh: 8; Rce1 inh: inactive; UUG fidelity: -35; PABP FP inh: -4; eIF4H FP inh: 63; eIF4H FP inh retest: 0; PABP FP inh retest: 10; MT1-MMP act inh RFP: -2

Results for CC(=O)N1CCc2cc(S(=O)(=O)CCC(=O)NCc3ccc(F)cc3)ccc21 ?
CSC inhib: -10; MT1-MMP act inh: -4; HIV Env fusion: -3; Rce1 inh: inactive; UUG fidelity: -16; PABP FP inh: 10; eIF4H FP inh: -2; MT1-MMP act inh RFP: -2

How did CSCCC(NC(=O)c1ccccc1)C(=O)OCC(=O)Nc1ccc(C)c(Cl)c1 (stereo unspecified) do in these assays?
CSC inhib: -2; MT1-MMP act inh: -1; HIV Env fusion: -64; Rce1 inh: inactive; UUG fidelity: 1; PABP FP inh: 11; eIF4H FP inh: 6; MT1-MMP act inh RFP: 3

What do the screens show for `CN(C)S(=O)(=O)c1ccc(NC(=O)COC(=O)c2ccccn2)cc1`?
CSC inhib: -18; MT1-MMP act inh: 8; Rce1 inh: inactive; UUG fidelity: -19; PABP FP inh: 6; eIF4H FP inh: -12; MT1-MMP act inh RFP: 8

Results for C[C@@H](C(=O)Nc1nc2ccc(F)cc2s1)N1C(=O)C2CC=CCC2C1=O (stereo partly specified) ?
CSC inhib: 3; MT1-MMP act inh: -5; HIV Env fusion: 11; Rce1 inh: inactive; PABP FP inh: -4; eIF4H FP inh: 0; MT1-MMP act inh RFP: -1

Results for COc1ccccc1-n1ccnc1SCC(=O)NC1CCCC1 ?
CSC inhib: 0; MT1-MMP act inh: 0; HIV Env fusion: 15; Rce1 inh: inactive; PABP FP inh: 0; eIF4H FP inh: -12; MT1-MMP act inh RFP: 2

What do the screens show for `O=C(Nc1cccc(C(=O)O)c1)/C(=C\c1ccco1)NC(=O)c1ccc(Br)o1`?
CSC inhib: -9; MT1-MMP act inh: -7; HIV Env fusion: 5; Rce1 inh: inactive; UUG fidelity: -10; PABP FP inh: 37; eIF4H FP inh: 33; MT1-MMP act inh RFP: 8

Results for CC1CCCC(C)N1C(=O)COC(=O)CNC(=O)C12CC3CC(CC(C3)C1)C2 (stereo unspecified) ?
CSC inhib: -4; MT1-MMP act inh: 0; HIV Env fusion: -33; Rce1 inh: inactive; MT1-MMP act inh RFP: -1

What do the screens show for `O=C(Nc1ccc2c(c1)oc1ccc(S(=O)(=O)N3CCCC3)cc12)C1CC1`?
CSC inhib: 37; MT1-MMP act inh: 4; Rce1 inh: inactive; UUG fidelity: 5; PABP FP inh: -5; eIF4H FP inh: 1; MT1-MMP act inh RFP: -6

Results for CC(=O)Nc1ccc(C(=O)COC(=O)C2CCCCC2)c(F)c1 ?
MT1-MMP act inh: -2; HIV Env fusion: 2; UUG fidelity: -31; MT1-MMP act inh RFP: 1

Results for O=C(N/N=C/c1ccco1)c1ccc(NC(=O)c2ccccc2Cl)cc1 ?
CSC inhib: -4; MT1-MMP act inh: -1; HIV Env fusion: 20; Rce1 inh: inactive; PABP FP inh: 10; eIF4H FP inh: -12; MT1-MMP act inh RFP: 1

How did COc1cc(C#N)ccc1OCC(=O)Nc1ccc(C)c(S(=O)(=O)N2CCOCC2)c1 do in these assays?
MT1-MMP act inh: -2; HIV Env fusion: 4; Rce1 inh: inactive; PABP FP inh: 14; eIF4H FP inh: 1; MT1-MMP act inh RFP: -4

What do the screens show for `COC(=O)CSc1nc2ccccc2c(=O)n1C`?
CSC inhib: 11; MT1-MMP act inh: -1; HIV Env fusion: -93; Rce1 inh: inactive; UUG fidelity: 0; PABP FP inh: -6; eIF4H FP inh: -1; MT1-MMP act inh RFP: 1

How did CC(=O)Nc1sc(C)c(C)c1C(=O)OCCOc1ccccc1 do in these assays?
CSC inhib: 14; MT1-MMP act inh: 4; HIV Env fusion: -57; Rce1 inh: inactive; UUG fidelity: -13; PABP FP inh: 8; eIF4H FP inh: -8; MT1-MMP act inh RFP: -4

Results for O=C(NCCc1ccccc1)c1ccc(NC(=O)C2CCC2)cc1 ?
MT1-MMP act inh: 5; HIV Env fusion: -12; UUG fidelity: -5; MT1-MMP act inh RFP: -1

How did NC(=O)[C@H]1CC2(CC(c3cccc(NC(=O)COc4ccc(Cl)cc4)c3)=NO2)CN1C(=O)[C@H]1CCC(=O)N1 (stereo partly specified) do in these assays?
CSC inhib: 1; MT1-MMP act inh: 2; HIV Env fusion: -11; Rce1 inh: inactive; UUG fidelity: -9; PABP FP inh: 1; eIF4H FP inh: -5; MT1-MMP act inh RFP: 3

Results for Cc1nn(-c2ccccc2)c(C)c1NC(=O)COc1ccc(Cl)cc1Cl ?
CSC inhib: 22; MT1-MMP act inh: -10; HIV Env fusion: 32; Rce1 inh: inactive; UUG fidelity: 2; PABP FP inh: 6; eIF4H FP inh: -9; MT1-MMP act inh RFP: -21

What do the screens show for `CC(C)Cn1c(N2CCN(C(=O)/C=C/c3ccccc3)CC2)nc2ccccc21`?
CSC inhib: 2; MT1-MMP act inh: -7; HIV Env fusion: 3; Rce1 inh: inactive; PABP FP inh: 0; eIF4H FP inh: -4; MT1-MMP act inh RFP: -1

What do the screens show for `Cn1c(N)c(C(=O)COC(=O)C2CCC(C(C)(C)C)CC2)c(=O)n(C)c1=O` (stereo unspecified)?
CSC inhib: -2; MT1-MMP act inh: -3; Rce1 inh: inactive; UUG fidelity: -2; PABP FP inh: -1; eIF4H FP inh: 6; MT1-MMP act inh RFP: -7

What do the screens show for `COc1ccccc1Cc1c(-c2cccc(Br)c2)nc2c(C)cc(Br)cn12`?
MT1-MMP act inh: -2; HIV Env fusion: -4; UUG fidelity: 5; MT1-MMP act inh RFP: 4

What do the screens show for `CC(C)(C)n1ncc2c(=O)n(Cc3ccc(Cl)cc3Cl)cnc21`?
CSC inhib: 5; MT1-MMP act inh: -2; Rce1 inh: inactive; UUG fidelity: -10; PABP FP inh: -4; eIF4H FP inh: 4; MT1-MMP act inh RFP: -15

Results for Cc1ccc(CNC(=O)c2cc(=O)c3ccc(C)cc3o2)cc1 ?
CSC inhib: -18; MT1-MMP act inh: 1; HIV Env fusion: 1; Rce1 inh: inactive; UUG fidelity: -9; PABP FP inh: -8; eIF4H FP inh: 5; MT1-MMP act inh RFP: -3

What do the screens show for `CCN1CCN(CCCNC(=O)C2c3ccccc3C(=O)N(C)C2c2ccc(OC)cc2)CC1` (stereo unspecified)?
CSC inhib: -17; MT1-MMP act inh: 3; HIV Env fusion: -39; Rce1 inh: inactive; UUG fidelity: -6; PABP FP inh: 2; eIF4H FP inh: 3; MT1-MMP act inh RFP: 10

Results for CSc1ccccc1NC(=O)CN(C)CC(=O)Nc1ccc(S(=O)(=O)N2CCCC2)cc1 ?
CSC inhib: -10; MT1-MMP act inh: 5; HIV Env fusion: -5; UUG fidelity: -14; MT1-MMP act inh RFP: -5

Results for O=C(NCCC1=CCCCC1)C1CCN(S(=O)(=O)c2ccccc2)CC1 ?
CSC inhib: -10; MT1-MMP act inh: 2; HIV Env fusion: 10; Rce1 inh: inactive; PABP FP inh: -1; eIF4H FP inh: 0; MT1-MMP act inh RFP: 5

How did COc1ccc(-c2nn(CCC#N)cc2/C=N/O)cc1 do in these assays?
CSC inhib: -9; MT1-MMP act inh: -1; HIV Env fusion: 12; Rce1 inh: inactive; PABP FP inh: -2; eIF4H FP inh: -21; MT1-MMP act inh RFP: -2

How did CC(NC(=O)CCNC(=O)N1CCn2c1nc1ccccc12)c1ccccc1 (stereo unspecified) do in these assays?
CSC inhib: -7; MT1-MMP act inh: -2; HIV Env fusion: 0; Rce1 inh: inactive; UUG fidelity: -21; PABP FP inh: 2; eIF4H FP inh: -18; MT1-MMP act inh RFP: -2

What do the screens show for `CC(C)C(NS(=O)(=O)c1cccs1)C(=O)N1CCc2ccccc2C1` (stereo unspecified)?
CSC inhib: -19; MT1-MMP act inh: 1; Rce1 inh: inactive; UUG fidelity: -7; PABP FP inh: 1; eIF4H FP inh: 1; MT1-MMP act inh RFP: 2

How did COc1ccc2oc(C(=O)N3CCN(S(=O)(=O)c4cccc([N+](=O)[O-])c4)CC3)c(C)c2c1 do in these assays?
CSC inhib: -10; MT1-MMP act inh: -4; HIV Env fusion: -3; Rce1 inh: inactive; UUG fidelity: -8; PABP FP inh: 2; eIF4H FP inh: 12; MT1-MMP act inh RFP: -10

Results for CC(=O)CCc1ccc2oc(C(=O)O)c(C)c2c1 ?
CSC inhib: 3; MT1-MMP act inh: 0; Rce1 inh: inactive; UUG fidelity: -14; PABP FP inh: 0; eIF4H FP inh: 2; MT1-MMP act inh RFP: 5

Results for Cc1[nH]n(-c2ccccc2)c(=O)c1C=NCCc1ccccc1 ?
CSC inhib: 14; MT1-MMP act inh: 5; HIV Env fusion: 4; Rce1 inh: inactive; PABP FP inh: 6; eIF4H FP inh: 6; MT1-MMP act inh RFP: 1

Results for O=C(NC1CCCCCC1)c1cccs1 ?
CSC inhib: -4; MT1-MMP act inh: 4; HIV Env fusion: -17; Rce1 inh: inactive; UUG fidelity: -10; PABP FP inh: -12; eIF4H FP inh: -6; MT1-MMP act inh RFP: 5
